# From PubChem
# Sa ugtP lethal: growth inhibition of ugtP-null S. aureus, primary screen, RN4220 ugtP deletion, OD600. growth inhibition, % (test concentration not listed). AID 1259309, 2017. actives 0.54% (n = 330,000). 16 h; some inactives read as strong as hits;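 active = z-score under -3 and OD600 up to 0.15 on both plates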;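 note: plate controls were untreated wells for no effect and antibiotic for full effect; wells of about 80 µL received 100 nL stock; the first replicate is given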
# RN4220 kill: growth inhibition of S. aureus RN4220, primary screen, OD600. 16 h. AID 1259311, 2017. actives 0.33% (n = 330,000). inhibition, % (no concentration beside the values);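 active = z-score of -3 or lower and OD600 up to 0.18 on both plates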;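 note: plate controls were untreated cells for no effect and reference antibiotic for full effect; stock transfer was 100 nL into about 80 µL; one replicate is shown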
# Autofluor counter: flagged as autofluorescent in microsphere protease counterscreen | compound autofluorescence counterscreen, microsphere flow cytometry; stronger effect = higher value | fluorescence intensity (no concentration beside the values) | actives 3.1% (n = 360,000);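 active = at least 3 SD above the mean of all compounds, about 16000 in these data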;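 note: 100 nL of 1 mM stock went into each well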
# PrP UTR inh: inhibition of PrP 5' UTR reporter expression; cell-based PrP 5' UTR mRNA reporter, plate reader; inhibition, % (no concentration beside the values); actives 0.35% (n = 340,000); AID 488862, 2010;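 active = every replicate at 50% or more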;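 note: 0 = median of the neutral control wells; tested in H4 reporter cells; numbers are from one replicate; inactives centre near -14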
# Mtb hypoxia inh: PubChem AID 1159583. M. tuberculosis hypoxia-regulated fluorescent reporter, fluorescence. fluorescence inhibition, % (test concentration not listed). actives 0.1% (n = 300,000);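 active = 35 to 45% if threefold the growth effect, above 45% if 1.5-fold the growth effect; inactive = the rest, general growth blockers included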;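 note: wells of about 50 µL received 100 nL stock; 0% = vehicle wells and 100% = reference inhibitor wells; whole bacteria with a GFP reporter of the hypoxia response; strong numbers were not always called active; many hits fall short of the cut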
# BJeLR viability: MLPCN primary cell-based screen for lethality selective to Ras in HRASV12 cells. BJeLR (HRASV12) viability, CellTiter-Glo ATP luminescence, 48 h; reference of the scale not given here. inhibition, % (concentration not given with the values). actives 0.17% (n = 300,000). AID 1554, 2009;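 active = replicate mean above 50%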;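 note: 50 nL library stock added to about 25 µL; numbers are from one replicate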
# Mtb hypoxia inh growth: also measured in Mtb hypoxia inh; calls as there; growth inhibition, %; measured here: M. tuberculosis growth (absorbance);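 0% = vehicle and 100% = reference antibiotic; read after six days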
# * marks the source's active call; other numbers are inactive results; . = not tested or not shown. The order is random. Share with any hit: about 4%.
mol	Sa ugtP lethal	RN4220 kill	Autofluor counter	PrP UTR inh	Mtb hypoxia inh	Mtb hypoxia inh growth	BJeLR viability
COC1=CC(=O)OC(c2ccco2)C1 (centres undefined)	3	0.4	3926	-15	3	2	.
Cc1ccc2c(c1)/C(=C/c1ccco1)C(=O)N2	2	13	2661	-11	-8	-3	2
O=C(CSCc1ccc(F)cc1)N1CCN(c2ccccc2)CC1	-8	-7.2	23909*	-20	-3	4	-17
CC(OC(=O)[C@@H]1CCCN1C(=O)c1cccs1)C(=O)Nc1cccc([N+](=O)[O-])c1 (some centres undefined)	8	-2.1	3716	-20	11	6	.
O=C(NN=C/C(Cl)=C/c1ccc([N+](=O)[O-])cc1)C(=O)Nc1ccc(C(=O)O)cc1	-2	3.1	.	.	6	7	.
Cc1ccc(NC(CC(=O)c2ccccc2)C(=O)O)cc1Cl (centres undefined)	8	-3.7	4785	-79	9	5	7
COc1ccc2[nH]c3c(c2c1)CCN1C(=O)C(CC(=O)NC(C)(C)C)C[C@H](C(=O)N2CCCCC2)[C@@]31C (some centres undefined)	2	0.0	3526	-55	-8	-5	.
COc1ccccc1-n1c(SCC(=O)O)nnc1-c1ccc(S(=O)(=O)N2CCCCC2)cc1	-2	-2.8	7961	-9	1	11	-4
CC1CCN(C(=O)CN(C)S(=O)(=O)c2cccc3nsnc23)CC1	3	0.5	4015	-18	12	2	7
Clc1ccccc1Cn1nnc2c(Nc3ccccc3)ncnc21	-6	-0.1	10065	-20	0	2	-1
COc1cc(NC(=O)c2ncn[nH]2)cc(OC)c1OC	0	4.3	3801	-13	4	5	6
O=C(NN1C(=O)NC2(CCCCC2)C1=O)c1ccc(-c2ccc(Cl)cc2)o1	-4	2.4	4225	-19	2	-2	.
Cc1nnc(SCCn2c(N3CC(C)CC(C)C3)nc3c2c(=O)n(C)c(=O)n3C)s1 (centres undefined)	12	3.6	8638	-21	3	-3	1
Cc1c(Cl)cccc1NC(=S)NC1CCN(Cc2ccccc2)CC1	1	-0.3	2703	-14	-2	4	2
COc1cc(NS(=O)(=O)c2ccc(NS(=O)(=O)c3ccccc3)cc2)nc(OC)n1	-4	4.5	3195	-5	4	9	-8
Cc1nc(N2CCOCC2)nc(OC(C)C)c1[N+](=O)[O-]	14	5.3	2497	-7	2	-18	-5
Cc1ccc(NC(=O)CSCC(=O)NNC(=O)c2nn(C)c(=O)c3ccccc23)cc1	4	-1.8	7697	-20	7	8	.
O=C(Nc1ccc(Br)cc1)/C(=C/c1cccc([N+](=O)[O-])c1)NC(=O)C1CCCCC1	-9	-2.6	13913	-21	5	3	3
CCc1ccc2[nH]c(=O)c(C(c3nnnn3CCOC)N3CCN(c4ccc(F)cc4)CC3)cc2c1 (centres undefined)	-4	-3.7	2973	-4	.	.	-3
O=C(COc1ccccc1)Nc1ccc2c(c1)nc1n2CCSC1	-2	1.4	3646	-55	-5	4	-3
Cc1ccccc1-n1nnnc1SCC(=O)Nc1ccc(S(=O)(=O)N2CCCC2)cc1	10	1.6	3953	-13	.	.	0
COc1cc(C=NN=C(N)c2nonc2N)cc(Br)c1OCc1ccccc1C	-10	8.4	.	.	-2	8	.
O=C(O)CSC1CC(=O)N(c2ccc(Br)cc2)C1=O (centres undefined)	-1	2.3	3148	-8	17	7	-1
CCCn1nc2cc(C(=O)NCc3ccc4c(c3)OCO4)ccc2c1OCC	-2	-1.1	3582	-10	-2	4	-4
Cn1cccc1C(=O)NC(=O)COC(=O)c1ccccc1Sc1ccccc1C#N	7	6.7	4586	-5	.	.	-2
Cc1ccc(NC(=O)c2ccccc2NS(=O)(=O)c2ccc(F)cc2)cc1S(=O)(=O)N1CCCCC1	4	18	3269	11	7	4	25
Cc1ccccc1C(=O)Nc1cccc(NC(=O)c2cccnc2)c1	14	-0.3	5409	-6	1	3	-3
O=C1C(SC(F)(F)C(F)F)=C(C(F)(F)F)OC2C3C=CC(C3)C12 (centres undefined)	6	4.4	2341	-21	.	.	4
COC(=O)c1nn(-c2nc(-c3cccc(OC)c3)cc(C(F)(F)F)n2)cc1[N+](=O)[O-]	10	0.6	3484	3	5	-12	21
Cc1ccc(S(=O)(=O)NC(=O)Nc2nnc(C3CC3)s2)cc1	-2	0.2	5273	-23	2	9	9
O=C(NC1=NCCS1)c1cc(Cl)ccc1Cl	3	2.0	3435	-31	-1	13	8
Cc1ccccc1C(=O)OCc1nnc(-c2ccc(Cl)cc2)o1	9	9.8	3263	-16	16	12	.
Cc1ccc(S(=O)(=O)NNC(=O)Nc2cccc(C)c2C)c(C)c1	-1	1.7	4885	-32	2	0	-4
CC1(C)Cc2ccccc2C(/C(=N/O)C(N)=O)=N1	.	.	5777	-6	.	.	-3
O=C(NCCN1CCOCC1)c1ccc(Cl)cc1[N+](=O)[O-]	2	3.6	8259	-13	7	3	-3
CCC1CCCCN1CCNS(=O)(=O)c1ccc2c(c1)CCN2C(C)=O (centres undefined)	0	-0.7	4717	-25	.	.	-8
COc1ccc(S(N)(=O)=O)cc1C(=O)NCC(C)(C)N1CCOCC1	7	2.3	3196	-13	-2	-3	-8
CCc1ccccc1NC(=O)CN(C)C(=O)CSc1nnc(Nc2ccc(C)cc2)s1	2	1.5	2006	-13	5	6	-9
O=C(COC(=O)c1cccnc1Cl)Nc1ccc(S(=O)(=O)N2CCOCC2)cc1	2	1.6	3708	-24	10	7	.
O=C(O)c1ccc(S(=O)(=O)N2CCOCC2)o1	2	0.1	5573	10	8	-1	-7
O=C(c1ccccc1)c1coc2c1C(=O)c1ccccc1C2=O	7	-3.0	4346	37	-3	10	6
NS(=O)(=O)c1cnccc1Oc1cccc(Cl)c1	-1	0.7	3830	-24	7	3	-5
CN(CC(=O)Nc1ccccc1Br)C(=O)CCSc1ccc(F)cc1	5	3.2	6084	-14	0	0	-1
Cc1ccc(SCc2cc(=O)n(C)[nH]2)cc1	-10	3.7	1996	-10	7	11	-7
COC(=O)c1ccccc1OCCOCCOc1cccc2ccc(C)nc12	.	.	4248	-10	.	.	10
Cc1nnc(N2C(=O)c3ccc(Br)cc3C2=O)s1	8	-0.5	3944	-4	4	17	8
COCCCn1c(=O)c2ccccc2n(CC(=O)Nc2ccc3c(c2)OCCO3)c1=O	9	-1.1	3663	-23	17	10	5
COc1cc(C(=O)NNC(=S)NCc2ccco2)cc(OC)c1OC	5	0.7	4352	3	0	6	2
O=C(OC1CCN(CCCl)CC1)C(c1ccccc1)c1ccccc1	-1	0.3	4194	50	10	2	.
CC(=NNC(=O)c1nnn(-c2nonc2N)c1CSc1ccccc1)c1ccco1	0	2.3	.	.	6	-11	.
O=C1C2CC=C(Cl)CC2C(=O)N1CCCCCCN1C(=O)C2CC=C(Cl)CC2C1=O (centres undefined)	-4	5.7	10517	-1	1	0	1
COCCn1c(C)cc(C(=O)COC(=O)c2ccc(-n3nc(C)cc3C)cc2)c1C	0	4.1	3756	-37	1	9	-3
CCCCOC(=O)c1ccc(NC(=O)c2c(Cl)ccc(Cl)c2OC)cc1	4	11	1984	-9	14	4	-6
Cc1c(C(=O)N2CCOCC2)oc2ccc(S(=O)(=O)N3CCCC3)cc12	-1	4.7	4081	0	6	-2	5
Nc1c(N(Cc2ccco2)C(=O)COc2ccc(Cl)cc2)c(=O)[nH]c(=O)n1Cc1ccccc1	3	5.8	.	-1	7	4	.
CCOc1ccc(NS(=O)(=O)c2ccc(OCC)c3ncccc23)cc1	17	0.7	7972	-23	7	1	-6
CCN(CC)CCCN1C(=O)C(O)=C(C(=O)c2ccco2)C1c1ccc(C)o1 (centres undefined)	3	3.6	3564	-7	.	.	-1
O=c1oc2ccccc2n1CCCOc1ccccc1	-2	-14	5218	-44	0	6	-2
O=C1CCCC(O)=C1C=NCc1ccccc1	-4	-1.0	4048	-1	-3	8	-1
CCCCSc1ccc2nc(-c3ccc(C#N)cc3)cn2c1	-22	8.0	3464	-65	5	6	-7

# New compounds follow
mol	Sa ugtP lethal	RN4220 kill	Autofluor counter	PrP UTR inh	Mtb hypoxia inh	Mtb hypoxia inh growth	BJeLR viability
O=C(NNc1ccc([N+](=O)[O-])cc1)C12CC3CC(CC(C3)C1)C2	0	0.5	20243*	-29	-5	1	11
CNC(=O)C1=C(C)Nc2nc3ccccc3n2C1c1cccc(OC)c1 (centres undefined)	6	6.5	5883	-15	1	4	-4
CCCC(NS(=O)(=O)c1ccc(OC)cc1)C(=O)O (centres undefined)	-6	6.4	20886*	-27	8	8	-5
O=C(COC(=O)c1cc(Br)ccc1O)Nc1ccc2c(c1)OCO2	-4	5.2	3803	-37	4	-4	.
CC(=O)Nc1ccc(NC(=O)CCc2nc3ccccc3c(=O)[nH]2)cc1	12	-0.3	2247	-25	1	1	0
c1ccc2oc(-c3nn4c(Cn5cnc6ccccc65)nnc4s3)cc2c1	3	2.2	5192	-9	6	-2	-8
CCN1CCc2c(C#N)c(N3CCCCC3)nc(NCc3ccccc3)c2C1	23	2.2	4801	-13	-5	5	-2
Cc1cc(C)nc(SCC(=O)NC(=O)c2ccccc2O)n1	-1	3.2	3807	-9	-7	8	.
O=C1CSC(c2cccc(F)c2)N1c1ccc(O)cc1 (centres undefined)	0	3.6	9231	-17	4	-9	4
O=C1c2ccsc2SCCN1Cc1c(F)cccc1Cl	13	4.1	3087	-31	16	-3	-7
CCCCn1nc(C(=O)Nc2cc(S(=O)(=O)N(C)C)ccc2C)c2ccccc2c1=O	-8	-2.7	3584	-7	-10	-10	16
Cc1cc2nccc(-c3ccccn3)n2n1	2	3.5	4589	-26	13	4	-10
Cc1cc(C)n(-c2ccc(C(=O)Nc3ccc(N4CCOCC4)cc3)cc2)n1	1	3.4	2916	-16	.	.	-3
O=C(CSc1nnnn1-c1cccc2c1CCCC2)N1CCCC1	-6	14	4194	-12	.	.	10
Cc1ccccc1C(=O)NN1CC(C(=O)OCc2ccc(Cl)c(Cl)c2)CC1=O (centres undefined)	-8	3.7	5737	6	7	8	-5
COc1ccc(C(=O)NC2CCCc3c2cnn3-c2cccc(C)c2C)c(OC)n1 (centres undefined)	1	5.9	5323	6	12	7	24
CCn1ccnc1CNC(=O)CC1C(=O)NCCN1Cc1ccc(F)cc1Cl (centres undefined)	12	6.0	4084	-5	-4	-9	9
O=C(CN1CCN(Cc2ccc3c(c2)OCO3)CC1)Nc1ccc2[nH]c(=O)[nH]c2c1	2	4.1	3183	-27	8	8	.
CN(C)CCNC(=O)c1ccccc1	-3	0.9	20030*	-14	-5	6	-4
Cc1ccc(C(=O)NC(NC(=O)c2ccc(C)cc2)C(Cl)Cl)cc1	1	-0.7	4716	-18	.	.	4

# Structural class: the compounds so far containing a CF3 group
mol	Sa ugtP lethal	RN4220 kill	Autofluor counter	PrP UTR inh	Mtb hypoxia inh	Mtb hypoxia inh growth	BJeLR viability
O=C1C(SC(F)(F)C(F)F)=C(C(F)(F)F)OC2C3C=CC(C3)C12 (centres undefined)	6	4.4	2341	-21	.	.	4
COC(=O)c1nn(-c2nc(-c3cccc(OC)c3)cc(C(F)(F)F)n2)cc1[N+](=O)[O-]	10	0.6	3484	3	5	-12	21

# Next results follow:
mol	Sa ugtP lethal	RN4220 kill	Autofluor counter	PrP UTR inh	Mtb hypoxia inh	Mtb hypoxia inh growth	BJeLR viability
S=C(c1ccc(-c2cccc(Cl)c2)o1)N1CCOCC1	31	12	7633	-132	6	9	-4
CCCCn1c(SCC(=O)c2ccc(O)cc2O)nc2cc(S(N)(=O)=O)ccc21	-10	4.8	4066	-20	1	3	3
O=C(CN(C(=O)CNC(=O)c1ccco1)c1ccc(F)cc1)NC1CCCC1	6	-1.4	4796	-14	4	8	6
COc1cc(CNC(=O)c2ccc(Cn3nc(C)c(Cl)c3C)o2)cc(OC)c1	-7	0.8	10052	2	3	6	-1
COc1cc(C)c(S(=O)(=O)NCc2cccs2)cc1C	6	1.4	2791	-10	.	.	0
CC(=O)Cn1cnc2c(cnn2-c2ccccc2)c1=O	5	1.6	3322	-15	-1	11	-4
O=C(c1ccc([N+](=O)[O-])cc1)c1cc2ccc(O)cc2oc1=O	3	3.0	3875	-5	3	4	7
